Screening data (PubChem BioAssay)
Rango-impB inh: inhibitors of Rango-importin beta complex formation. Potency, µM (titrated, usually from 92.2 µM), for inactives: at the top dose inhibition of complex formation. Rango CFP/YFP FRET sensor + importin beta, 45 min. Q14974. actives 0.031% (n = 340,000); active = rising FRET ratio curve, often small or poorly fitted; inconclusive = mostly compound fluorescence or quenching in the first reads; inactive = flat curves in all reads;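 further: potency means the concentration at half of the fitted maximal effect; 0% = DMSO wells and 100% = buffer wells lacking importin beta; nearly all actives have a fitted effect of over 15% in size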
Target sequence (Q14974 whole entry, looked up): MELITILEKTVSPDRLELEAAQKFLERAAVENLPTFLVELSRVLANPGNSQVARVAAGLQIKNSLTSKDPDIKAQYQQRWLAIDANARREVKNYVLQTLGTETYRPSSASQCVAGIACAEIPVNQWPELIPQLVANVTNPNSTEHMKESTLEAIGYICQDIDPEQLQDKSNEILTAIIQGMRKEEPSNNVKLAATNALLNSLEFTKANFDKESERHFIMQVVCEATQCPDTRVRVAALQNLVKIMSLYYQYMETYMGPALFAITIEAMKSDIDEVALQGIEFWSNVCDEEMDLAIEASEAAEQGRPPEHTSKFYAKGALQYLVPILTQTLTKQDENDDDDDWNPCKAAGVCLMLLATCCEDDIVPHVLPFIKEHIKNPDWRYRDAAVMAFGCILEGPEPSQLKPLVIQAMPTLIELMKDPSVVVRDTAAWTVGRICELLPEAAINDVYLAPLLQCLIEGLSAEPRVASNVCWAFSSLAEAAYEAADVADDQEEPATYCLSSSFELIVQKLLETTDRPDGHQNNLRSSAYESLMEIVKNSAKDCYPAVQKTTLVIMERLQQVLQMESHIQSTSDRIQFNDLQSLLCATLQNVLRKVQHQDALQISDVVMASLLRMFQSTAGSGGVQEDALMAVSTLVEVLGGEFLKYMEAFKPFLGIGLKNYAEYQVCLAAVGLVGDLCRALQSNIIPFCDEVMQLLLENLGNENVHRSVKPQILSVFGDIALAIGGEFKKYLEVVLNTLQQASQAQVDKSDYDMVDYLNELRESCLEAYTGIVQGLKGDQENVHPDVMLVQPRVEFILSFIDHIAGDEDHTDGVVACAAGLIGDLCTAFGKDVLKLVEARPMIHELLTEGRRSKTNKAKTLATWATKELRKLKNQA
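Inhibition scored from the CFP 486 nm/YFP 530 nm FRET ratio 45 min after adding 0.125 microM importin beta to 50 nM Rango biosensor preincubated 5 min with compound (room temperature, PBS with DTT, Tween-20, BSA). No-importin wells as positive control.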
Rango dissoc inh: prevents RanGTP from dissociating the Rango-importin beta complex; Biochemical FRET Rango-importin beta, RanGTP-induced dissociation; Potency, µM (top dose mostly 46.1 µM), inactives show at the top dose activity change, negative = inhibition; O95149+P62826; actives 0.071% (n = 340,000); active means falling FRET ratio curve, often poorly fitted, with flat reads before Ran was added; inconclusive means other falling curves, or compound fluorescence or quenching; inactive means flat or rising ratio curve;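 further: potency means the concentration at half of the fitted maximal effect; % of control where 0% means no effect; nearly all actives have a fitted effect of over 45% in size; -100% = wells without RanGTP and RCC1; the record marks most hits as doubtful in a second field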
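FRET read at 45 min, room temperature: inhibitors block the CFP/YFP signal rise when RanGTP (0.6 uM Ran, 2 mM GTP, 0.2 uM RCC1) frees Rango (0.1 uM) from importin beta (0.25 uM). Pre-read after 5 min compound exposure flags interference.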
GLA inh pH 4.5: blocks human alpha-galactosidase A at pH 4.5 | purified enzyme, 4-MU-alpha-Gal fluorescence, pH 4.5 | AID 1467 | 230,000 tested, under 10 active | activity change, negative = inhibition, % at 105 µM; inconclusive = small, poorly fitted or top-dose-only inhibition, or a rising curve; inactive = flat fitted curve, though single readings scatter; no compound was filed as active;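 further: 0% = full activity with enzyme and -100% = basal without enzyme; dose as in the result columns while the protocol names 77 µM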
miR-21 reporter: raises the signal of a miR-21 reporter. HeLa miR-21 FLuc reporter, luciferase, 48 h. Potency, µM (series often up to 38.3 µM), for inactives: at the top dose reporter change, positive = more light. 340,000 tested, under 10 active. AID 2288; active = well fitted rising curve with a large enough effect; inconclusive = small, poorly fitted or top-dose-only effect; inactive = no such curve, though single readings can be large or run the other way;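 further: % of control where 0% means no effect; miR-21 action dims this reporter so a rising signal means less miR-21 action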
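HeLa cells endogenously expressing miR-21, stably carrying CMV-driven firefly luciferase with a downstream miR-21 binding site, 2000 cells/well. Titrations up to approximately 40 uM, 48 hours; luciferase luminescence read.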
* hit, by the source's call; ? = inconclusive; nt = not tested or not shown; & = joins results of further samples. These rows are one share of the data; count on the stated rates, not on these rows.

Key to letters: A = Rango-impB inh; B = Rango dissoc inh; C = GLA inh pH 4.5; D = miR-21 reporter
(1) COc1cccc(NC(=O)CSc2nnc(-c3ccc(C)cc3)o2)c1
  A: 0.2%; B: 1.4%; C: -1.5; D: -32.3%
(2) Cc1cccc(N2CCN(C(=O)Cn3cccc3C(=O)c3ccccc3)CC2)c1C
  A: 0.8%; B: -5.3%; C: -0.6; D: 12.8%
(3) O=C(O)c1ccc(Nc2c3ccccc3nc3ccccc23)cc1
  A: ?; B: ?; C: nt; D: -10.4%
(4) CCN(CC)CCCn1c(C)cc2c(c1=O)C(c1ccc(OC)c(OC)c1OC)C(C#N)=C(N)O2 (centres undefined)
  A: -1.8%; B: 6.2%; C: -3.1; D: 3.4%
(5) O=C(N/N=C/c1ccccc1)c1ccc(N2CCCC2=O)cc1
  A: 0.3%; B: -0.4%; C: nt; D: nt
(6) CCCC(=O)Nc1ccc2c(c1)nc1n2CCN(CCOC)C1
  A: ?; B: 2.2%; C: nt; D: 0.0%
(7) Cc1ccc(CCNC(=O)C23CN(Cc4ccccc4)CC2C(c2ccc([N+](=O)[O-])cc2)=NO3)cc1 (centres undefined)
  A: 2.6%; B: 0.9%; C: -5.1; D: 7.7%
(8) O=C(CCN1C(=O)c2ccccc2C1=O)C1=NN[C@@H]2C(=O)N(c3cccc(F)c3)C(=O)[C@H]12
  A: -0.6%; B: 1.4%; C: 0.5; D: 0.3%
(9) CCC(Sc1nc2ccsc2c(=O)n1-c1ccc(Cl)c(C)c1)C(=O)NCc1ccco1 (centres undefined)
  A: 1.3%; B: -8.8%; C: -0.5; D: -1.0%
(10) COc1cccc(CNC(=O)C(C)n2nc(C)n3c(cc4occc43)c2=O)c1 (centres undefined)
  A: 4.2%; B: -15.1%; C: nt; D: -13.0%
(11) CC(C)N(C(=O)CN1CCC(c2nc3ccccc3[nH]2)CC1)C(C)C
  A: -3.3%; B: 11.9%; C: nt; D: 3.1%
(12) CC(C)CNS(=O)(=O)c1ccc(OCC(=O)Nc2ccc(F)cc2F)cc1
  A: -0.6%; B: -0.9%; C: 15.7; D: 1.4%
(13) CC(=O)Nc1ccc(S(=O)(=O)NCc2csc(C)n2)cc1
  A: 3.6%; B: 1.2%; C: 0.9; D: -2.1%
(14) COc1ccc(-c2[nH]ncc2/C=N/NC(=O)c2cccc([N+](=O)[O-])c2)cc1OC
  A: 4.8%; B: 6.7%; C: 2.4; D: 0.8%
(15) COC(=O)C1CCN(C(=O)CN(C)Cc2ccc(C(C)(C)C)cc2)CC1
  A: -2.1%; B: -5.9%; C: nt; D: 9.1%
(16) COc1ccc(N2C(=O)C(Cl)=C(N3CCOCC3)C2=O)cc1
  A: -1.9%; B: 25.3%; C: nt; D: 9.3%
(17) CCOC(OCC)P(=O)(C(C)C)C(C)C
  A: -0.1%; B: -2.8%; C: 6.2; D: -4.8%
(18) COc1ccc(C(=O)C2CCCN(Cc3cc(C)c(O)c(C)c3)C2)c(OC)c1 (centres undefined)
  A: -0.1%; B: 11.4%; C: nt; D: 9.8%
(19) O=C1CC(NS(=O)(=O)c2cccnc2)CN1c1ccc(Cl)cc1 (centres undefined)
  A: 3.9%; B: -14.6%; C: nt; D: nt
(20) CCc1ccc(OCC(=O)NNC(=O)c2c(CC)noc2C)cc1
  A: 0.4%; B: -1.1%; C: nt; D: nt
(21) C/C(N)=C(/C#N)C(=O)CSc1nnc(Cc2ccccc2F)n1N
  A: -0.1%&0.7%; B: 11.5%&-13.4%; C: 9.1; D: 0.6%
(22) CN(Cc1ccc(Cl)cc1Cl)C(=O)CN1C(=O)NC2(CCCC2)C1=O
  A: -1.5%; B: -0.5%; C: nt; D: nt
(23) CC1CCN(C(=O)CSc2nnc(-c3ccncc3)n2C)CC1
  A: 3.0%; B: 3.7%; C: -2.4; D: -4.7%
(24) CCOC(=O)c1cc(COc2cc(Cl)cc(Cl)c2)on1
  A: -1.8%; B: -0.2%; C: -2.9; D: -0.8%
(25) O=C(c1cccn2c(=O)c3cc(Cl)ccc3nc12)N1CCN(Cc2ccc3c(c2)OCO3)CC1
  A: ?; B: ?; C: -8.0; D: -0.4%

Next section, overlapping the part above by 7 compounds.
Key to letters: A = Rango-impB inh; B = Rango dissoc inh; C = GLA inh pH 4.5; D = miR-21 reporter
(19) O=C1CC(NS(=O)(=O)c2cccnc2)CN1c1ccc(Cl)cc1 (centres undefined)
  A: 3.9%; B: -14.6%; C: nt; D: nt
(20) CCc1ccc(OCC(=O)NNC(=O)c2c(CC)noc2C)cc1
  A: 0.4%; B: -1.1%; C: nt; D: nt
(21) C/C(N)=C(/C#N)C(=O)CSc1nnc(Cc2ccccc2F)n1N
  A: -0.1%&0.7%; B: 11.5%&-13.4%; C: 9.1; D: 0.6%
(22) CN(Cc1ccc(Cl)cc1Cl)C(=O)CN1C(=O)NC2(CCCC2)C1=O
  A: -1.5%; B: -0.5%; C: nt; D: nt
(23) CC1CCN(C(=O)CSc2nnc(-c3ccncc3)n2C)CC1
  A: 3.0%; B: 3.7%; C: -2.4; D: -4.7%
(24) CCOC(=O)c1cc(COc2cc(Cl)cc(Cl)c2)on1
  A: -1.8%; B: -0.2%; C: -2.9; D: -0.8%
(25) O=C(c1cccn2c(=O)c3cc(Cl)ccc3nc12)N1CCN(Cc2ccc3c(c2)OCO3)CC1
  A: ?; B: ?; C: -8.0; D: -0.4%
(26) COCCCN1C(=O)c2ccc(C(=O)NCc3ccccn3)cc2C1=O
  A: -0.9%; B: -20.9%; C: nt; D: 0.3%
(27) COc1ccccc1N1CCN(C(=O)/C=C/c2c(Cl)nc3ccccn23)CC1
  A: -4.3%; B: 22.3%; C: -7.5; D: -6.7%
(28) COc1ccccc1N1CCN(C(=O)CCn2c(=O)[nH]c3ccsc3c2=O)CC1
  A: 0.0%; B: -0.5%; C: 4.9; D: -10.7%
(29) Cc1ccc(CN2C(=O)CCC2C(=O)NCC2CCCO2)cc1 (centres undefined)
  A: -1.0%; B: -4.0%; C: 2.9; D: -4.3%
(30) O=C(CC1SC(=O)N(Cc2ccccc2Cl)C1=O)Nc1nccs1 (centres undefined)
  A: -11.9%; B: 2.2%; C: 2.7; D: 8.2%
(31) O=C(OCCc1cc2ccccc2c(=O)o1)c1ccco1
  A: -0.7%; B: 0.0%; C: nt; D: nt
(32) O=C(COc1coc(CN2CCc3ccccc3C2)cc1=O)Nc1ccc(F)cc1F
  A: 8.0%; B: ?; C: nt; D: nt
(33) Cc1cc(C)n(-c2nnc(C)n2NS(C)(=O)=O)n1
  A: -1.3%; B: 0.3%; C: -4.2; D: -4.8%
(34) Cn1c(SCc2ccc(C#N)cc2)nnc1-c1ccccc1
  A: -4.4%; B: -0.3%; C: 5.4; D: -0.3%
(35) Cc1cc(C)n(CC(=O)c2ccc(Br)cc2)c(=O)c1C#N
  A: -0.4%; B: 9.9%; C: -1.9; D: 3.7%
(36) Cc1ccc(/C(N)=N/OC(=O)c2cccc(Cn3cc(C(F)(F)F)ccc3=O)c2)cc1
  A: 1.2%; B: 0.6%; C: -8.5; D: -4.1%
(37) COc1ccc(C(C)=O)cc1CSc1nnc(-c2ccc(Cl)cc2)n1-c1ccccc1
  A: 0.4%; B: 6.3%; C: -8.7; D: -4.4%
(38) Cc1nnc(SCc2nc(N)nc(Nc3ccccc3)n2)s1
  A: 1.0%; B: -5.3%; C: 4.8; D: -70.1%
(39) COc1cccc(CNc2cccc3cccnc23)c1O
  A: 3.7%; B: -8.0%; C: -15.2; D: 0.5%
(40) C/C(=N/NS(=O)(=O)c1ccc(C)cc1)c1c[nH]c2ccccc12
  A: ?; B: -12.8%; C: nt; D: -2.4%
(41) Cc1cc(S(=O)(=O)N2CCCCC2CCNC(=O)C(=O)NCC2CCCO2)ccc1F (centres undefined)
  A: 2.1%; B: 2.0%; C: nt; D: nt
(42) Cc1ccc(S(=O)(=O)NCC(=O)OCC(=O)Nc2ncc(Cl)cc2Cl)cc1
  A: 0.6%; B: 0.8%; C: -7.9; D: 1.0%
(43) CCn1nnc(NC(=O)c2cccnc2Cl)n1
  A: -0.4%; B: -11.3%; C: -2.0; D: -3.3%
(44) COc1ccc(NC(=O)CSCC(=O)Nc2cc(Cl)ccc2N2CCOCC2)cc1
  A: -0.8%; B: 4.1%; C: nt; D: nt
(45) CC(NC(=O)CN(c1cccc(C(F)(F)F)c1)S(C)(=O)=O)c1ccccc1 (centres undefined)
  A: 3.6%; B: -2.7%; C: nt; D: 3.0%
(46) CCn1cc(CN2CCN(CCC(C)C)C(CCO)C2)c2ccccc21 (centres undefined)
  A: 1.8%; B: -9.4%; C: nt; D: 0.2%
(47) Cc1cccc(C(=O)NC2CCCc3ccccc32)c1 (centres undefined)
  A: nt; B: nt; C: -1.6; D: -19.2%

Some of these compounds in order of the miR-21 reporter value, lowest first.
Key to letters: A = Rango-impB inh; B = Rango dissoc inh; C = GLA inh pH 4.5; D = miR-21 reporter
(28) COc1ccccc1N1CCN(C(=O)CCn2c(=O)[nH]c3ccsc3c2=O)CC1
  A: 0.0%; B: -0.5%; C: 4.9; D: -10.7%
(37) COc1ccc(C(C)=O)cc1CSc1nnc(-c2ccc(Cl)cc2)n1-c1ccccc1
  A: 0.4%; B: 6.3%; C: -8.7; D: -4.4%
(43) CCn1nnc(NC(=O)c2cccnc2Cl)n1
  A: -0.4%; B: -11.3%; C: -2.0; D: -3.3%
(39) COc1cccc(CNc2cccc3cccnc23)c1O
  A: 3.7%; B: -8.0%; C: -15.2; D: 0.5%
(35) Cc1cc(C)n(CC(=O)c2ccc(Br)cc2)c(=O)c1C#N
  A: -0.4%; B: 9.9%; C: -1.9; D: 3.7%
(30) O=C(CC1SC(=O)N(Cc2ccccc2Cl)C1=O)Nc1nccs1 (centres undefined)
  A: -11.9%; B: 2.2%; C: 2.7; D: 8.2%
